nsP2pro inh – inhibitors of chikungunya virus nsP2 protease | Q8JUX6 | FRET peptide cleavage, nsP2pro, fluorescence 1 h | Potency, µM (doses to about 24.9 µM), without a hit: at the top dose activity change, negative = inhibition, usual class: inhibitors | 1.1% of 31,000 active; active means well fitted inhibition curve with a large enough effect; inconclusive means small, poorly fitted or top-dose-only effect; inactive means no such curve, though single readings can be large or run the other way; also: nearly all actives have a fitted effect of over 60% in size; a reference inhibitor and vehicle were the controls
Target sequence (Q8JUX6 whole entry, looked up): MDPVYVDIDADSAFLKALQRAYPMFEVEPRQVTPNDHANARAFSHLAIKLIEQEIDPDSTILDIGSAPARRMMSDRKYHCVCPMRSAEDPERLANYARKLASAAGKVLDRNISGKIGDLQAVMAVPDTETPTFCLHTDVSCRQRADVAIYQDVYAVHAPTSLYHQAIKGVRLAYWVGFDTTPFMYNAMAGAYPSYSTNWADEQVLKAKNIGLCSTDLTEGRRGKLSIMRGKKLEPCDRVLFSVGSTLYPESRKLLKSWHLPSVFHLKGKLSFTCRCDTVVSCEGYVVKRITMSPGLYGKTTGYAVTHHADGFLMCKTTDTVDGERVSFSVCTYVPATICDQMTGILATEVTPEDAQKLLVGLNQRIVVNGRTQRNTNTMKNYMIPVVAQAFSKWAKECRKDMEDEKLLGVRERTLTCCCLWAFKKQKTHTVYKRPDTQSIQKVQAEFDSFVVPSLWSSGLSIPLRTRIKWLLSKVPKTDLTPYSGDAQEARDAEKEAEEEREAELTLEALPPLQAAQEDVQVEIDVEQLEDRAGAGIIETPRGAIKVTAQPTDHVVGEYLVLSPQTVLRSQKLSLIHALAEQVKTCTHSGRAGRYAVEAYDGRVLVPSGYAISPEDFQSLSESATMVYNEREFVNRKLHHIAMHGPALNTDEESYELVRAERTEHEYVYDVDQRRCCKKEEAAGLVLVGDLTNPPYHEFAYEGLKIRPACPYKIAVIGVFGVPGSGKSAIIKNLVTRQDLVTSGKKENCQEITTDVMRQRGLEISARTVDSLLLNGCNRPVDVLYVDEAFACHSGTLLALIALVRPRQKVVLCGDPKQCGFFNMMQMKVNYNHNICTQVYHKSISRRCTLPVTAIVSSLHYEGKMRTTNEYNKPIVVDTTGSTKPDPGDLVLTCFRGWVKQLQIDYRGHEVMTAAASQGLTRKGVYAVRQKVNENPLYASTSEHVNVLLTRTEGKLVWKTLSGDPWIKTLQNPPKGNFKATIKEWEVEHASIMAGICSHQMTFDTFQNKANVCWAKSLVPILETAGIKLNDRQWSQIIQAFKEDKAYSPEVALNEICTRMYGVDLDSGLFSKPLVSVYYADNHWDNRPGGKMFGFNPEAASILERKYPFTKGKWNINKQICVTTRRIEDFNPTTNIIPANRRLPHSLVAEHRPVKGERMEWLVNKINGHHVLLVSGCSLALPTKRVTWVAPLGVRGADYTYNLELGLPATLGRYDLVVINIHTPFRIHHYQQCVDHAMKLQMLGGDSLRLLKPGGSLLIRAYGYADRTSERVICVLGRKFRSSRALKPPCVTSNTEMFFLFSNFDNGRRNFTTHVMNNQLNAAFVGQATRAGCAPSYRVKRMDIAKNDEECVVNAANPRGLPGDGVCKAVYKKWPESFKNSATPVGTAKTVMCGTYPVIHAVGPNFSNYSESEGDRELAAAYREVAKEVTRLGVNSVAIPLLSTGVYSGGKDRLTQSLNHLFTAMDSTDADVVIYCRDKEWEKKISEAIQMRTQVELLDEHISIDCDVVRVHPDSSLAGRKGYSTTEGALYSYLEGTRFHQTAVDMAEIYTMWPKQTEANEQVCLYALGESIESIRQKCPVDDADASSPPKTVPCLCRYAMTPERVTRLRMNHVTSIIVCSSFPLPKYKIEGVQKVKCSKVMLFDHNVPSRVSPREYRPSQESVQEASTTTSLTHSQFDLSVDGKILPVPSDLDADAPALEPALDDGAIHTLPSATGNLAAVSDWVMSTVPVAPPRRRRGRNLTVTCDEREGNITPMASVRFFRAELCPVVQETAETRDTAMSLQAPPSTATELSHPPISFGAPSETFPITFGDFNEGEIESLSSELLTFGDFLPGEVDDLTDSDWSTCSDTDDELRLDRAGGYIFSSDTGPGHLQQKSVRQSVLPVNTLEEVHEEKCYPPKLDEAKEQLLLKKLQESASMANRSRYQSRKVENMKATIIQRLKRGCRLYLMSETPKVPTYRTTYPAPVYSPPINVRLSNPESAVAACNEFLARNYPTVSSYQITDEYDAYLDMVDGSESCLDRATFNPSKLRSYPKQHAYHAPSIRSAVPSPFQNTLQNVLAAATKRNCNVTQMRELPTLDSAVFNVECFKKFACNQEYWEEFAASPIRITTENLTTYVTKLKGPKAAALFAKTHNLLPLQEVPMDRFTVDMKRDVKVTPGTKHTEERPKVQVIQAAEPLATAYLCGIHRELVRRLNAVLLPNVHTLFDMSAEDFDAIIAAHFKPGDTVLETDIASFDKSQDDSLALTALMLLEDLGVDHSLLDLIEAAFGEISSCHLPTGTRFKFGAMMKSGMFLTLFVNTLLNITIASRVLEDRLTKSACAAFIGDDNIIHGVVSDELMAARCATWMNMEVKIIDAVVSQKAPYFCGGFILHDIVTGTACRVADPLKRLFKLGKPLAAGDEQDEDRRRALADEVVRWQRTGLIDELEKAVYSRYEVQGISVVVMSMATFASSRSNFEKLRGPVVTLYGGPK
* hit, by the source's call; i = inactive; ? = inconclusive; [ ] = another dose, or the depositor's remark. % is scaled to controls: 0 for no effect and ±100 for the full control effect; potency is read from the fitted curve at half-maximal effect. This is a subset (hit frequency here may not be typical).

SMILES	nsP2pro inh
CSc1ccc(-c2cnc(N3CCC(C(N)=O)CC3)s2)cc1	2%
O=C(c1ccc2c(c1)N(Cc1cccc(Cl)c1)C(=O)c1ccccc1S2(=O)=O)N1CCN(Cc2ccccc2)CC1	-9%
CC(C)n1c(SCC(=O)c2ccc(F)cc2)nc2c(sc3ccccc32)c1=O	-7%
O=C1O[C@H]([C@@H](O)CO)C(O)=C1O	-14%
C[C@H]1COc2c(C3(N)CC3)c(F)cc3c(=O)c(C(=O)O)cn1c23	-3%
CC(C)(C)OC(=O)N1CCC(c2c(C(=O)N3CCN(C(=O)c4ccco4)CC3)cnn2-c2ccc(Cl)cc2)CC1	-17%
O=C(Cn1ccc2cc(S(=O)(=O)N3CCCCC3)ccc21)NCc1ccccc1Cl	-14%
CC[C@H]1CN(C(=O)c2ccnc(Cl)c2)CC[C@H]1CC(=O)N1CCC(C(N)=O)CC1	i
CC(=O)Nc1c(I)cc(I)c(C(=O)O)c1I	8%
COc1cc(CCC(=O)N2C[C@@H](C(N)=O)[C@H](c3nc(C)no3)C2)on1	-20%
CC(C)C1CN(c2ccc(C#N)cn2)CCC(=O)N1Cc1ccc(F)cc1 (configuration not stated)	-6%
CN(CCc1ccccn1)C[C@H]1CN2CC[C@H]1C[C@@H]2CNC(=O)c1ccco1	i
Cc1nc(C2CC23CCN(C(=O)Nc2ccccc2F)CC3)no1 (configuration not stated)	-6%
CC(C)c1nn2c(=O)cc(COC(=O)c3ccc4c(c3)OCO4)nc2s1	-29%
CN(C(=O)Cc1ccccc1)[C@H](CN1CCCC1)c1ccccc1	-25%
Cc1cccc(N2CCN(C(=O)c3cc4n(n3)CC(c3ccc(Cl)cc3)OC4)CC2)c1 (configuration not stated)	-15%
CC(C)N1C[C@@H](COC(C)(C)C)[C@H](c2ccccc2)[S+]1(=O)[O-]	-14%
Cn1c(=O)cc(SCC(=O)NCc2ccc(F)cc2)c2cc(Cl)ccc21	-24%
COc1cccc(NC(=O)CSc2nnc(-c3cccs3)o2)c1	-21%
C/C=C/C=C/[C@@H]1O[C@](O)([C@H](CC)C(=O)NC/C=C/C=C(\C)[C@@H](OC)[C@@H](C)C2OC(/C=C/C=C/C=C(\C)C(=O)c3c(O)cc[nH]c3=O)[C@H](O)[C@@H]2O)[C@H](O)[C@H](O)C1(C)C (some centres not stated)	6%[10 µM]
COc1ccccc1CNS(=O)(=O)c1c(C)nc2sccn2c1=O	-22%
CCCCCCn1nnc2sc(-c3ccccc3)cc2c1=O	-15%
COc1ccc(Cl)cc1NC(=O)CCCN1C(=O)C(c2ccccc2)Oc2cccnc21 (configuration not stated)	-6%
COC(=O)c1ccc(C2c3c(oc4ccc(C)cc4c3=O)C(=O)N2Cc2ccc3c(c2)OCO3)cc1 (configuration not stated)	-12%
COc1ccc(-c2nc3c(c(=O)[nH]2)CCN(C(=O)Nc2ccccc2Cl)C3)cc1	i
Cc1ccccc1CN1CCc2nc(N3CCN(c4ccccn4)CC3)ncc2C1	?
CNC(=O)[C@@H]1CN(C(=O)c2cccc(C)n2)C[C@H]1COC	-5%
CC(C)c1noc([C@H]2C[C@@H]3C(=O)NCCCCCCN(C(=O)Cc4ccccc4)[C@@H]3C2)n1	i
CCC(CC)C(=O)Nc1cccc(-c2nc3ncccn3c2C)c1	-2%
CCCCn1c(CCNC(=O)c2ccc(F)cc2)nc2ccccc21	-13%
COc1cc(C)c(C(=O)O[C@@H]2[C@H](O)[C@@H](CO)O[C@H]2n2ccc(=O)[nH]c2=O)c(OC)c1	7%[10 µM]
Cc1nc(SCC(=O)Nc2ccc(C)c(Cl)c2)cc(-c2ccccc2)n1	-15%
C=C1C(=O)O[C@@H]2/C=C(\CO)CC/C=C(/C=O)C[C@H](O)[C@@H]12	?
Cc1cn([C@H]2C[C@H](N[S+](=O)([O-])Cc3ccc([N+](=O)[O-])cc3)[C@@H](CO)O2)c(=O)[nH]c1=O	-9%
CCCCn1c(=N)c(S(=O)(=O)c2ccc(C)cc2)cc2c(=O)n3cc(C)ccc3nc21	-3%
Cc1cc(CNC(=O)c2cc(C(=O)NCc3ccc(F)c(C)c3)ncn2)ccc1F	?
O=C(NCc1ccc2c(c1)OCO2)C1CCN(c2cn[nH]c(=O)c2)C1 (configuration not stated)	i
O=C(CCS(=O)(=O)c1cc(Br)cc2c1N(C(=O)C1CC1)CC2)NCc1ccc(Cl)cc1	-13%
CC(C)(CO)c1cc2cc(NC(=O)C3(c4ccc5c(c4)OC(F)(F)O5)CC3)c(F)cc2n1CC(O)CO (configuration not stated)	4%
O=c1ccc(-c2cccs2)c2n1C[C@H]1C[C@@H]2CN(S(=O)(=O)c2ccccc2)C1	16µM*
COC1CC(O[C@H]2CC[C@]3(C)C4CC[C@]5(C)[C@@H](C6=CC(=O)OC6)[C@@H](OC(C)=O)C[C@]5(O)C4CC[C@@H]3C2)OC(C)C1O (some centres not stated)	4%[10 µM]
Cc1cccc(NC(=O)CSc2nc3ccccc3nc2N2CCC(C)CC2)c1	-15%
COCCN1CCCC2(CCN(c3ccc4ccccc4n3)C2)C1=O (configuration not stated)	i
COc1cccc(S(=O)(=O)N2CCN(S(=O)(=O)c3ccc4c(c3)OCCO4)CC2)c1	-9%
CC(C)COC(=O)N1CCCn2nc(-c3nc4ccccc4n3C)cc2C1	i
COc1ccc(S(=O)(=O)NC2(C(F)(F)F)NC(=O)N(CCc3ccc(OC)c(OC)c3)C2=O)cc1 (configuration not stated)	-15%
CCOC(=O)C1=C(N)Oc2ccc(Cl)cc2C1C(C#N)C(=O)OCC (configuration not stated)	-18%
Cn1cnc([N+](=O)[O-])c1Sc1ncnc2nc[nH]c12	12%
C=C1CCC2C(C)(CO[C@@H]3O[C@H](CO)[C@@H](O)[C@H](O)[C@H]3O)C(O)CCC2(C)C1C(=O)CC1=CCOC1=O (some centres not stated)	-6%[10 µM]
NCCc1noc(Cc2ccccc2)n1	4%
CC1=C(CC/C(C)=C/C(=O)O)[C@@]2(C)CCCC(C)(C)C2CC1=O (some centres not stated)	-8%
CC(C)Cn1cc(NC(=O)NCc2cccc(Cl)c2)c2ccccc2c1=O	?
CN1[C@H](C(=O)O)C[C@H](C(=O)NCC2(CO)CCCC2)[C@@H]1c1ccccc1F	-20%
O[C@@H]1[C@@H](Cn2cc(C3CC3)nn2)C[C@@H](NCc2nccs2)[C@@H]1O	-9%
CC1OC(OC2C(OC3C(O[C@H]4CC[C@@]5(C)C(CC[C@]6(C)C5CC=C5C7CC(C)(C)CC(O)[C@]7(C)CC[C@]56C)C4(C)C)OC(C(=O)O)C(O)C3O)OCC(O)C2O)C(O)C(O)C1O (some centres not stated)	32%[5.1 µM]
C=CCNC(=O)N[C@H]1C[C@@H](C(=O)N[C@H](Cc2c[nH]c3ccccc23)C(N)=O)N(C(=O)c2cccn2C)C1	i
Fc1cnc(-c2ccccc2C(F)F)nc1NCc1ccc(-c2ccn[nH]2)cc1	i
COc1ccc(C(CC(=O)N2CC(C)CC(C)C2)c2c(O)cc(OC)cc2OC)cc1 (configuration not stated)	i
Cc1cccc(-c2csc(N3CCC(C(N)=O)CC3)n2)c1	-10%
CC1CCN(S(=O)(=O)c2csc(C(N)=O)c2)CC1	-5%

Remaining list, next part
SMILES	nsP2pro inh
COc1cc(CNCCc2ccc(Cl)cc2)ccc1OCC(O)CN1CCOCC1 (configuration not stated)	-3%
CCN(CC)CCCNC(=O)CCCn1c(=O)[nH]c2ccc(Br)cc2c1=O	-13%
Cc1cc2ccccc2n1-c1ccc(C(=O)N2CCCCC2)s1	-10%
CC1(C)[C@H](C=C(Cl)Cl)[C@@H]1C(=O)OCc1c(F)c(F)cc(F)c1F	-4%
COC(=O)N1CCCN(c2nccc(Nc3ccc(C)cc3)n2)C1	-4%[39.2 µM]
O=C1c2ccccc2C(=O)N1c1cncc2ccccc12	-2%
CCCC1(CO)CCCN(Cc2nnc(-c3cccc(F)c3)o2)C1 (configuration not stated)	3%
CCO/N=C(\C(=O)N[C@@H]1C(=O)N2C(C(=O)O)=C(Sc3nc(-c4cc[n+](C)cc4)cs3)CS[C@H]12)c1nsc(NP(=O)(O)O)n1	11µM*
COc1ccc(CCNC(=O)c2ccc3c(c2)CCN3S(=O)(=O)c2ccc(C)cc2)cc1OC	-12%
O=C(NCCc1nc2ccccc2n1Cc1ccccc1)c1ccco1	-1%
CC(C)c1ccc(NC(=O)Cn2cnc3c2c(=O)n(C)c(=O)n3C)cc1	-9%
Cc1cc(NC(=O)C(C)(C)Oc2ccc(Cl)cc2)cc(-c2nc3ncccc3o2)c1O	-15%
O=C(O)c1ccc2c(c1)C(=O)N([C@H](Cc1ccc(O)c(O)c1)C(=O)O)C2=O	0%
CC(C)(C)OC(=O)NCC(=O)NNC(=O)c1cc2ccccc2[nH]1	i
Cc1cccc(Nc2cc(C)nc(-n3nc(C)cc3C)n2)c1	24%
O=C1CC(c2ccc(F)cc2)c2c(n3c(nc4ccccc43)[nH]c2=O)N1 (configuration not stated)	-11%
CCN(CC)c1ccc(NC(=O)c2sc3ccccc3c2Cl)cc1	28%
c1ccc(C(c2ccccc2)N2CCN(Cc3nc(-c4ccccn4)no3)CC2)cc1	1%
Cc1ccc(CNC(=O)CC2Oc3ccc(Cl)cc3NC2=O)cc1 (configuration not stated)	-18%
Cc1n[nH]c(C)c1CNC(=O)C1CCN(c2cn[nH]c(=O)c2)C1 (configuration not stated)	3%
O=C(NCc1nnc2n1C(C(=O)NC1CC1)CC2)c1ccncc1 (configuration not stated)	6%
C=C(C)C(=O)O[C@H]1C[C@@](C)(O)C(=O)CC(O)/C(C)=C\[C@H]2OC(=O)C(=C)[C@H]12 (some centres not stated)	?
CC(C)(C)c1ccc(-c2nnc(NC(=O)Nc3ccc4ccccc4c3)s2)cc1	-16%
Cc1cc(Nc2sc(C(=O)c3ccc(F)cc3)c(N)c2C(=O)Nc2ccc(F)cc2)ccc1Cl	?
NC(=O)C1CCN(c2nc(-c3ccc4c(c3)OCCO4)cs2)CC1	i
CC1(CO)CCCC2(C)C3COC(=O)C3=CC(O)C12 (configuration not stated)	-4%
CC(=O)N1C[C@@H](NC(=O)Nc2ccc(F)cc2F)C[C@H]1C(=O)N[C@H](Cc1c[nH]c2ccccc12)C(N)=O	3%
CC(=O)NCCn1c(SCC(=O)Nc2ccc(C)cc2)nc2ccccc2c1=O	-20%
Cc1ccc(CCNC(=O)CCn2nc(-c3ccccc3)ccc2=O)cc1	-15%
O=C(O)CCCCCC(=O)NN=C1CCCC1	1%
Cc1ccc(Nc2ccnc(N3CCC(C(=O)NCc4ccc(F)cc4)CC3)n2)cc1	-4%
C[C@]1(CO)[C@H]2Cc3sc(-c4ccccc4)nc3[C@@H](CC(=O)N3CCOCC3)[C@]2(C)CC[C@H]1O	-4%
CC1=C[C@@H](CNC(=O)CCCC(=O)O)[C@H](C(C)C)C[C@H]1Cc1nc2ccccc2n1C	-16%[39.2 µM]
CCOc1ccc(-c2cc(C(=O)NCc3ccc(OCC)c(OC)c3)[nH]n2)cc1	-16%
CCCNC(=O)C(CC)n1nc(CC)n2c(cc3oc(C)cc32)c1=O (configuration not stated)	-23%
CNC(=O)c1cc2cc(-c3c(C)noc3C)nc(-c3cccc(OC)c3OC)c2o1	-13%[39.2 µM]
COc1ccc(Cc2nc3nccc(-c4cc5ccccc5o4)n3n2)cc1	-1%
CN(C)c1ccc(C2CC(c3c(O)n(C4CCCCC4)c(=O)[nH]c3=O)=Nc3ccccc3S2)cc1 (configuration not stated)	?
O=C(c1ccc(Cl)cc1)N1CC2(CCCN2C2COC2)Cc2ccccc21 (configuration not stated)	i
COc1ccc(-c2nc3ccccc3s2)cc1OC	i
COc1ccc(NC(=O)CCSc2nc(-c3ccco3)cc(C(F)(F)F)n2)cc1OC	-8%
Cc1cc(=O)c2cc(C(=O)Nc3cccc(C)c3C)ccc2[nH]1	-15%
CCC1CCc2nc3sc(C(=O)Nc4ccc(F)cc4F)c(N)c3cc2C1 (configuration not stated)	-16%
CC1CCN(C(=O)c2cc(-c3ccc(Br)cc3)on2)CC1	-13%
N#Cc1nonc1-c1ccccc1	-1%
C/C=C/C=C/C(O)=C1/C(=O)[C@]2(C)C3/C(=C(O)/C=C/C=C/C)C(=O)C4(C)C1[C@]1(C)O[C@@]4(O)[C@@]3(C)O[C@@]12O	?
CN1CCCC2(C1)CN(C)c1ccc(C(=O)NCC3CCCCC3)cc12 (configuration not stated)	i
